Ecoli growth = blocks Escherichia coli growth; actives 0.21% (n = 330,000); OD600 absorbance (test concentration not listed); AID 1053175; OD600, 23 h; stronger effect = lower value;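 active means OD600 absorbance below the run mean of sample wells minus 3.6 SD, in any replicate, cut at about 0.56 in these data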;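 further: stock transfer was 300 nL into about 60 µL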
Ecoli rRNA inh = inhibitors of bacterial rRNA selective over humanized ribosomes; E. coli WT GFP vs humanized-ribosome RFP mutants, fluorescence, 24 h; stronger effect = lower value; DMSO median 0, no signal -100; GFP signal change (wild-type ribosome), % (test concentration not listed); actives 1.6% (n = 350,000);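 active means significant combined selectivity score with lowered wild-type GFP, culture density cut under 30%, mutant RFP and density less affected; inactive means any of these conditions unmet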; further: one replicate is shown; some compounds called inactive have numbers as strong as hits
HNF4A DNA FP = change in binding of human HNF4 alpha to DNA; HNF4a-FITC DNA binding, fluorescence polarization, 1 h; P41235; actives 0.3% (n = 360,000); activity change, % at 10 µM; in the data active means activity change above about 30%, passing the limit was not always enough;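 further: controls were the assay level and a saturating level of protein; the project sought stronger binding though the title names inhibitors; some compounds called inactive have numbers as strong as hits; positive values seem to mean higher polarization but the record does not say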
UCH37 DUB inh = human UCH37 deubiquitinating enzyme inhibition | Q9Y5K5 | purified proteasome/UCH37, Ub-AMC cleavage fluorescence | inhibition, % (concentration not given with the values) | actives 0.33% (n = 330,000) | AID 588478;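 active means mean of two replicates above 20%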;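 further: 0% = compound-free wells with enzyme and 100% = wells lacking proteasome; stock transfer was 100 nL into about 20 µL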
Target sequence (Q9Y5K5 whole entry, looked up): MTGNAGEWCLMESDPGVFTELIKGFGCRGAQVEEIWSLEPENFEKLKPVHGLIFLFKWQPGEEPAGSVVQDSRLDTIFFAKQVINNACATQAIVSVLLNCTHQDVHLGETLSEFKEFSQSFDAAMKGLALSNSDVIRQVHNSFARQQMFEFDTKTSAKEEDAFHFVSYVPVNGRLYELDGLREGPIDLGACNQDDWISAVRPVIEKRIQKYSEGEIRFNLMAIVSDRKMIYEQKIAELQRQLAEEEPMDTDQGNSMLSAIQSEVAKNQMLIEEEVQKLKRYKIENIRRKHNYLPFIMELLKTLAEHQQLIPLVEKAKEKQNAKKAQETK
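Test system – human UCH37 enzyme supplied as purified proteasome complex · Incubation – 30 min preincubation with enzyme, 25 min cleavage at room temperature · Detection – AMC fluorescence from Ub-AMC cleavage, excitation 355 nm, emission 460 nm · Benchmarks – no-proteasome wells (full inhibition) and compound-free wells (no inhibition)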
ALR H2O2 inh = blocks human ALR sulfhydryl oxidase activity; purified ALR, DTT oxidation, H2O2 HRP-luminol luminescence; inhibition, % (no concentration beside the values); actives 3.8% (n = 290,000);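 active means mean and each replicate at 75% or more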;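 further: stock transfer was 7.5 nL into about 7.5 µL; 0% = neutral wells and 100% = wells with inactivated enzyme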
Target sequence (P55789 whole entry, looked up): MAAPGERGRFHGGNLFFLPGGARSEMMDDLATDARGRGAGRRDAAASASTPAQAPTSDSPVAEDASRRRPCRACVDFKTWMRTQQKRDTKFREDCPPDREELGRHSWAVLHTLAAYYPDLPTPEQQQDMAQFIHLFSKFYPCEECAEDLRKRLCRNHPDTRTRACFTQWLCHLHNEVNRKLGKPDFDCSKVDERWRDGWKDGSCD
FGF22 binding = shifts melting point of recombinant human FGF22 | recombinant FGF22 thermal shift, SYPRO orange fluorescence; percent of sucrose octasulfate shift, DMSO zero | calls only at 9.99 µM | actives 1.5% (n = 340,000);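 active means melting point raised past a set limit in the mean and every replicate; three in four hits are not shown here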
Target sequence (Q9HCT0 whole entry, looked up): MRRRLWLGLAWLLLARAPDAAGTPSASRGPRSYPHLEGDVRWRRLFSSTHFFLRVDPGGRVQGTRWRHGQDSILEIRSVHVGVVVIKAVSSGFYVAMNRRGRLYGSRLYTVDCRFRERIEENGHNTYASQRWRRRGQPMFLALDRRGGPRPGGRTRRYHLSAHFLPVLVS
Beta2AR agonist = human beta-2 adrenergic receptor agonism by FAP; Am2.2-beta2AR cells, FAP receptor internalization, flow cytometry; reference of the scale not given here; response, % (concentration not given with the values); actives 0.43% (n = 340,000);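 active means response above a set limit, near 3 SD of response in nonfluorescent compounds, cut at about 42% in these data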;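 further: stock transfer was 100 nL into about 11 µL; a reference agonist was the positive control; negative values mostly stem from fluorescent compounds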
Ecoli rRNA inh OD600 = also measured in Ecoli rRNA inh; calls as there; OD600 change, %; measured here: OD600 growth;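 optical density of the mix in the first replicate; 0 = DMSO median and -100 = no signal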
Ecoli rRNA inh RFP = second read-out of Ecoli rRNA inh, no call of its own (marks repeat the call); RFP signal change, %; measured here: RFP humanized mutant strains;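 first replicate; 0 = DMSO median and -100 = no signal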
The depositor's hits bear a star; i = inactive; . = not tested or not shown. Only part of the results is shown; the hit share may differ from the screen's.

SMILES	Ecoli growth	Ecoli rRNA inh	Ecoli rRNA inh OD600	Ecoli rRNA inh RFP	HNF4A DNA FP	UCH37 DUB inh	ALR H2O2 inh	FGF22 binding	Beta2AR agonist
Cn1c(N)c(C(=O)COC(=O)CC2CC3CCC2C3)c(=O)n(C)c1=O (stereo unspecified)	0.7	-11	-6	4.9	0.8	0.9	19	.	-3
CCOc1ccc(S(=O)(=O)NCCC(=O)NCC(c2ccc(F)cc2)N2CCOCC2)cc1 (stereo unspecified)	0.64	3	8	-2.0	2.5	0.6	2	i	-5
COc1ccc(CCC(=O)NC2CCCN(Cc3ccc(Cl)cc3)C2)cc1OC (stereo unspecified)	0.69	19	6	0.9	-2.8	0.6	.	i	14
CCOc1ccccc1NC(=O)C1CCN(S(=O)(=O)c2cccc3cccnc23)CC1	0.74	-16	-18	2.0	2.8	0.7	36	i	19
O=C(NC1CC1)c1cccc(NC(=O)C2CCCCC2)c1	.	19	7	-0.1	-2.1	.	.	i	-2
Cc1cccc(OCCC(=O)Nc2ccc(F)c(F)c2)c1	0.67	-41*	12*	-12*	-6.9	-5.3	-3	.	3
Nc1c(-c2ccc(Cl)cc2)nnn1-c1ccccc1	0.67	.	.	.	-4.0	5.2	-1	.	-1
Cn1cc([C@]2(O)C(=O)Nc3c(F)cccc32)c2ccccc21	.	-7	-2	-2.5	-0.5	.	.	i	.
Clc1cccc(N2CCN(CCNc3nc4ccccc4n4cnnc34)CC2)c1	0.69	.	.	.	-0.2	-8.0	-6	.	-12
COc1ccc(CCNC(=O)CC(c2ccccc2)c2cccc(C)c2O)cc1OC (stereo unspecified)	0.64	-30	-31	-2.0	-8.3	1.5	45	i	-1
CCCOc1ccc(N/C=C/C(=O)c2cc(OC)c(OC)c(OC)c2)cc1	0.73	9	10	2.6	1.1	-5.5	-7	i	-10
CCN(CC)C(=O)C1CCCN(C(=O)c2ccc3nc(-c4cccc(OC)c4)oc3c2)C1 (stereo unspecified)	.	0	-11	7.2	-0.5	.	.	i	.
CC(=O)Nc1ccc(OCC(=O)Nc2ccc(Cl)c(S(=O)(=O)N3CCOCC3)c2)cc1	.	-4	4	0.8	1.0	.	-11	i	.
COc1ccc(CC(=O)NNC(=S)Nc2ccccc2)cc1Br	0.79	.	.	.	-0.8	1.6	.	.	-4
Cc1ccccc1NS(=O)(=O)c1ccc(C(=O)NCCCN2CCOCC2)cc1	0.67	-3	1	-2.9	-3.3	1.6	-4	i	5
COc1ccc(C(=O)COC(=O)CN2C(=O)C3CC=CCC3C2=O)c(OC)c1 (stereo unspecified)	0.71	-2	-10	3.9	-1.9	3.1	.	i	3
Cc1ccn2c(CN(C)CCn3nc(C)cc3C)c(C(=O)N3CCCCCC3)nc2c1	0.68	-4	5	0.0	3.7	-0.9	-7	i	-5
O=C(NCCN1CCOCC1)/C(=C\c1ccccc1F)NC(=O)c1ccccc1	0.68	5	9	-1.0	1.6	1.6	10	i	-1
CC(C)C[C@H]1CNC(=S)N1C[C@H]1CCCN1C[C@H](Cc1ccc(O)cc1)N1C[C@H](Cc2ccccc2)N(CC2CCCCCC2)C1=S	.	20	12	5.2	1.8	.	.	i	.
COC(=O)c1ccc(NC(=S)NC2CCCCC2)cc1	0.65	.	.	.	5.7	-0.3	3	.	-2

Another view of part of the listing above.
Sequence of screens: Ecoli growth	Ecoli rRNA inh	Ecoli rRNA inh OD600	Ecoli rRNA inh RFP	HNF4A DNA FP	UCH37 DUB inh	ALR H2O2 inh	FGF22 binding	Beta2AR agonist
- COc1ccc(C(=O)COC(=O)CN2C(=O)C3CC=CCC3C2=O)c(OC)c1 (stereo unspecified)
  0.71	-2	-10	3.9	-1.9	3.1	.	i	3
- CCN(CC)C(=O)C1CCCN(C(=O)c2ccc3nc(-c4cccc(OC)c4)oc3c2)C1 (stereo unspecified)
  .	0	-11	7.2	-0.5	.	.	i	.

Just Ecoli rRNA inh and HNF4A DNA FP (4 entries from above):
Compound	Ecoli rRNA inh	HNF4A DNA FP
CCOc1ccc(S(=O)(=O)NCCC(=O)NCC(c2ccc(F)cc2)N2CCOCC2)cc1 (stereo unspecified)	3	2.5
CCCOc1ccc(N/C=C/C(=O)c2cc(OC)c(OC)c(OC)c2)cc1	9	1.1
COc1ccc(C(=O)COC(=O)CN2C(=O)C3CC=CCC3C2=O)c(OC)c1 (stereo unspecified)	-2	-1.9
Clc1cccc(N2CCN(CCNc3nc4ccccc4n4cnnc34)CC2)c1	.	-0.2

Next section.
SMILES	Ecoli growth	Ecoli rRNA inh	Ecoli rRNA inh OD600	Ecoli rRNA inh RFP	HNF4A DNA FP	UCH37 DUB inh	ALR H2O2 inh	FGF22 binding	Beta2AR agonist
COCc1cc(C)nc2sc(C(=O)Nc3cccc(OC)c3)c(N)c12	0.68	1	6	3.1	-0.9	-87	-2	i	1
COc1ccc(-c2nn(-c3ccccc3)cc2/C=N/NC(=O)c2cccc(S(=O)(=O)Nc3ccccc3Cl)c2)cc1	.	9	-1	5.1	-0.1	.	.	i	-7
O=C(COC(=O)CCC1CCCC1)Nc1ccc(Cl)cn1	0.63	.	.	.	1.7	-0.2	-5	.	-1
O=C(Nc1ncc([N+](=O)[O-])s1)c1ccccc1Br	0.59	-55	-77	-18	-5.5	7.4	97*	i	3
CCOC(=O)C1CCN(S(=O)(=O)c2ccc3c(c2)NC(=O)C(C)C(=O)N3)CC1 (stereo unspecified)	0.77	1	5	0.8	0.4	4.0	11	i	2
Cc1ccc(-c2nc3ccc(C)cn3c2Cc2ccccn2)cc1	.	-8	5	5.3	-3.5	.	.	i	.
CCC(=O)Nc1ccc(-c2ccc(N3CCN(C)CC3)nn2)cc1	0.68	.	.	.	0.7	-3.0	-4	.	-2
COC(=O)c1[nH]c(=O)c2ccccc2c1OCc1ccccc1	0.7	.	.	.	0.4	4.0	.	.	4
c1ccc(N2CCN(c3nc4cc5c(cc4s3)OCCO5)CC2)cc1	0.74	.	.	.	2.6	5.4	.	.	2
N/C(=N\OC(=O)CCN1C(=O)c2ccccc2C1=O)c1ccccn1	0.68	25	15	0.4	-0.8	0.7	-8	i	-5
CC(C)Cc1nnc(NC(=O)CCC(=O)N2CCN(Cc3ccccc3)CC2)s1	0.68	-1	2	2.2	-4.0	-0.5	-1	i	-3
COc1ccc(OC)c(-c2cc(C(=O)NCCN3CCOCC3)no2)c1	0.62	0	-1	0.0	-0.7	5.1	-5	i	-1
CCOc1ccccc1NC(=O)CSc1nnc(C2CC2)n1CC	0.69	5	8	-0.4	2.3	3.0	1	i	-2
Cc1cccc(C)c1NC(=O)CN(C)C(=O)/C=C/c1cccs1	0.72	8	3	-1.1	1.9	8.5	-5	i	-3
CC1CCCC(NC(=O)c2ccc3c(c2)N(Cc2ccccc2)C(=O)CS3=O)C1C (stereo unspecified)	0.69	-10	-17	0.1	0.5	1.8	7	i	4
O=C(COc1ccc2c(-c3ccccc3)cc(=O)oc2c1)Nc1ccc(CN2CCOCC2)cc1	0.67	6	4	-0.4	1.8	-18	-4	i	-3
Cc1cc(C(=O)N2CCCC(CNS(=O)(=O)c3cccs3)C2)nn1C (stereo unspecified)	0.67	13	18	0.8	4.7	2.3	-3	i	3
C=CCN(c1ccc(C(=O)Nc2ccc3c(c2)OCO3)cc1)S(C)(=O)=O	0.67	3	1	-0.1	5.2	3.7	-2	i	7
O=C(Cn1ncc2c1-c1ccccc1OC2)Nc1nc2ccccc2s1	0.76	-56	-80	-14	0.3	6.7	7	i	-5
Cc1csc(NC(=O)CSc2nnc(-c3cccnc3)o2)n1	0.66	11	13	3.0	0.8	-0.4	-7	i	3

In the list so far, 2 have bromine:
SMILES	Ecoli growth	Ecoli rRNA inh	Ecoli rRNA inh OD600	Ecoli rRNA inh RFP	HNF4A DNA FP	UCH37 DUB inh	ALR H2O2 inh	FGF22 binding	Beta2AR agonist
COc1ccc(CC(=O)NNC(=S)Nc2ccccc2)cc1Br	0.79	.	.	.	-0.8	1.6	.	.	-4
O=C(Nc1ncc([N+](=O)[O-])s1)c1ccccc1Br	0.59	-55	-77	-18	-5.5	7.4	97*	i	3

Carrying on:
SMILES	Ecoli growth	Ecoli rRNA inh	Ecoli rRNA inh OD600	Ecoli rRNA inh RFP	HNF4A DNA FP	UCH37 DUB inh	ALR H2O2 inh	FGF22 binding	Beta2AR agonist
COc1ccc(NS(=O)(=O)c2cc(NC(=O)C3CC3)ccc2N2CCCCC2)cc1	0.69	-14	-20	-3.3	0.1	-1.5	2	i	-17
Cc1ccccc1NS(=O)(=O)c1ccc(C(=O)N2CCCCCCC2)cc1	0.66	-10	-19	-3.0	-1.6	1.3	-3	i	8
C=CCN1CCN(C(=O)CCc2ccccc2)CC1	0.64	12	7	-0.9	-3.8	2.9	1	i	-1
O=C1CCCCC1C(Nc1ccc(Cl)cc1)c1ccccc1 (stereo unspecified)	0.68	.	.	.	0.2	7.8	98*	.	18
COc1cccc(C(=O)C2CCCN(Cc3cccn3-c3cccnc3)C2)c1 (stereo unspecified)	0.68	3	0	-0.4	-0.5	1.0	0	i	1
CCC(=O)N/N=C(\C)CC(=O)Nc1ccccc1-c1ccccc1	.	5	5	0.3	-0.6	.	.	i	-4
COc1ccc(C(=O)NC(C)C2CC3CCC2C3)cc1 (stereo unspecified)	0.63	2	-5	7.8	-0.7	4.9	.	i	-2
COc1ccc(N(C(=O)CNC(=O)c2ccco2)C(C(=O)NC2CCCCC2)c2ccco2)cc1 (stereo unspecified)	0.68	.	.	.	1.3	4.5	2	.	-14
O=C1c2cccc3cc([N+](=O)[O-])cc(c23)C(=O)N1c1nncs1	0.69	10	7	2.5	4.5	3.9	-4	i	-4
CC(=O)Nc1ccccc1C(=O)C(=O)Nc1cccc(Br)c1	0.68	-10	-10	-4.3	-1.0	1.5	-6	i	4
O=S1(=O)CC(N2CCN(CCO)CC2)CN1Cc1cn(Cc2ccc(Cl)cc2)nn1 (stereo unspecified)	.	8	7	-2.6	-2.2	.	.	i	.
COc1ccc(/C=C/C(=O)OCC(=O)c2ccc(S(=O)(=O)N3CCCCC3)cc2)cc1OC	0.72	-4	6	3.0	0.0	1.7	-10	i	2
CCn1c(SCc2nnc(-c3ccccc3)o2)nnc1-c1ccc(S(=O)(=O)N2CCCC2)cc1	0.7	-4	4	-2.7	-3.4	3.1	-16	.	-2
Cc1ccccc1NC(=O)c1cccc(Cn2cc(Br)c([N+](=O)[O-])n2)c1	0.69	.	.	.	-0.3	0.1	-5	.	-4
C/C(CC(=O)Nc1cccc(C(F)(F)F)c1)=N\NC(=O)Cc1ccccc1	.	-1	14	5.5	-0.8	.	-1	i	-2
CCN1CCN(C(=O)CN2C(=O)COc3ccc(C)cc32)CC1	0.69	0	1	-4.5	2.6	5.0	0	i	-1
C[C@H](CO)N1C[C@H](C)[C@@H](CN(C)S(=O)(=O)c2ccc(F)cc2)Oc2c(NC(=O)c3ccncc3)cccc2C1=O	.	-1	5	0.7	3.5	.	.	i	-6
CC(=O)C1=C(O)C(=O)N(Cc2ccccc2)C1c1cccs1 (stereo unspecified)	0.72	.	.	.	8.6	5.9	2	.	7
CCCn1c(=O)c(C(=O)NNC(=O)Cc2ccccc2)c(O)c2ccccc21	0.7	-1	7	-2.3	3.7	-0.4	-1	i	11
N/C(COc1ccc(F)cc1)=N\NC(=O)c1cccnc1Oc1ccccc1	0.71	.	.	.	4.3	-0.1	-2	.	-3
COc1cc(SC)ccc1C(=O)N1CCc2ccccc21	0.66	5	-2	-2.0	-1.0	0.2	-7	i	-14
CN(CC(=O)Nc1ccccc1Br)C(=O)CCSc1ccc(F)cc1	0.71	-9	-16	-1.0	0.9	-0.4	2	i	0
